From PubChem BioAssay
Autofluor counter: flagged as autofluorescent in microsphere protease counterscreen | hit rate 3.1% among 360,000 | compound autofluorescence counterscreen, microsphere flow cytometry; active compounds read high | fluorescence intensity (no concentration beside the values);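 active means at least 3 SD above the mean of all compounds, about 16000 in these data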;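 further: 100 nL of 1 mM stock went into each well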
* marks the source's active call; other numbers are inactive results. This is a subset (hit frequency here may not be typical).

SMILES | Autofluor counter
C[C@@H]1CN([C@H](C)CO)C(=O)CCCn2cc(nn2)CO[C@H]1CN(C)S(=O)(=O)c1ccccc1F | 5683
CCCCN1C(=O)C(=O)NC[C@@H]1CC1CCCCC1 | 5883
CC1=C(C(=O)N2CCCCCC2)CC(CC(=O)NC(c2ccccc2)c2ccccc2)C(=O)N1CCC1=CCCCC1 (stereo unspecified) | 5572
COc1ccc(NC(=O)CCNC(=O)c2ccccc2Cl)cc1S(=O)(=O)N1CCCCC1 | 3750
CCOC(=O)CN1C(=O)N2C[C@H]3CON(C)[C@H]3C[C@H]2c2ccccc21 | 5995
COc1ccccc1-c1noc2c1C(=O)N(C(=O)OC(C)(C)C)CC2 | 3810
CCc1nc2ccc(C(=O)Nc3cccc(OC)c3)cn2c1N(C)Cc1ccc(OC)cc1 | 2977
Cc1cn([C@H]2C[C@H](O)[C@@H](/C=C/C(=O)NCc3ccc(N(C)C)cc3)O2)c(=O)[nH]c1=O | 6087
Cc1cnc(CNc2nc3cc(-c4ccccc4C)sc3c(=O)n2C)cn1 | 3831
O=C(Nc1ccccc1)C1Cc2c(-c3ccc4c(c3)OCO4)ccnc2O1 (stereo unspecified) | 3480
CCCCc1c(-c2cccc(Br)c2)ncn1CCc1ccccc1OC | 6068
N#CCSc1ccccc1NC(=O)COC(=O)C1CCN(C(=O)c2ccc(Cl)cc2)CC1 | 3749
CC1CC(NC(=S)N(C)C)CC(C)(C)C1 (stereo unspecified) | 3659
O=C(CC[C@H]1O[C@@H](n2cnc3c(NC(=O)c4ccccc4)ncnc32)[C@H](O)[C@@H]1O)NCCc1cc2ccccc2[nH]1 | 4320
C[C@H]1CN([C@@H](C)CO)C(=O)c2cc(C#CC3CCCC3)cnc2O[C@H]1CN(C)C(=O)Cc1ccccn1 | 3460
CCN(CC)C(=O)C1=C(C)N(CCCOC)C(=O)C(CC(=O)NCCc2ccccn2)C1 (stereo unspecified) | 3812
Cn1ccc2c(-c3ccc(C(N)=O)cc3)cc3c(c21)C1CCC3C1 (stereo unspecified) | 6175
C[C@@H]1CN([C@H](C)CO)C(=O)CCCn2nncc2CO[C@H]1CN(C)Cc1ccc2cccnc2c1 | 3740
COc1ccc(CC(=O)Nc2ccccc2C(F)(F)F)cc1S(=O)(=O)N1CCOCC1 | 2930
CCOC1=C2[C@H]([C@H]3C(=O)N(c4ccccc4)C(=O)[C@H]3C1)[C@@H](c1ccccc1)N(S(=O)(=O)c1ccc(C)cc1)[C@H]2c1ccccc1 | 5739
O=C(c1cc(C2CCCCN2S(=O)(=O)c2ccccc2)on1)N1CCOCC1 (stereo unspecified) | 3015
COc1ccc([C@H]2C[C@H](n3cc(COC(=O)c4ccccc4)nn3)[C@@H](O)CN2C(=O)c2cccs2)cc1 | 4111
Cn1ccc2c(-c3cccc4ccccc34)cc3c(c21)C1CCC3C1 (stereo unspecified) | 4492
COc1ccccc1-c1cnc(C(O)c2ccc(F)c(F)c2)[nH]1 (stereo unspecified) | 3972
O=C(NCc1cccnc1)c1cc(C2CCCCN2C(=O)OCc2ccccc2)on1 (stereo unspecified) | 3537
O=C1NC[C@@H](Cc2cccc3ccccc23)N(CCc2cccc(F)c2)C1=O | 5014
CC(C)N(Cc1nccn1C)C(=O)C1CCC(=O)N(CCc2ccccc2)C1 (stereo unspecified) | 3968
O=C(OCn1nnc2ccccc2c1=O)c1ccc(F)c(S(=O)(=O)N2CCOCC2)c1 | 3968
COc1ccccc1C(=Cc1ccc([N+](=O)[O-])cc1)C(=O)O | 3967
O=C(O)CN1C(=O)/C(=C\c2ccccc2OCc2ccccc2)SC1=S | 2832
COc1cc(F)ccc1-c1csc(C(O)c2ccc(F)cc2)n1 (stereo unspecified) | 3952
COc1ccc(NC(=O)N(C)C[C@@H]2OCc3cnnn3CCCC(=O)N([C@H](C)CO)C[C@@H]2C)cc1 | 2955
CN(C)S(=O)(=O)c1ccc(C(=O)Nc2nnc(SCC(=O)N3CCOCC3)s2)cc1 | 3035
NC(c1ccccc1)c1csc(Nc2ccc(C(=O)NCCCO)cn2)n1 (stereo unspecified) | 3701
CCc1nc2ccc(C(=O)Nc3ccc(OC)c(OC)c3)cn2c1N(CC)Cc1ccc(OC)c(OC)c1 | 3495
Cc1ccc(CN2Cc3ccc(Br)cc3-n3nncc3C2)cc1 | 5475
COC(=O)CCCn1cc(CN(C)C2CN(Cc3cn(CCCC(=O)OC)nn3)S(=O)(=O)C2)nn1 (stereo unspecified) | 5461
COC(=O)[C@@]1(Cc2ccc(OC)cc2)[C@H]2c3cc(C(=O)N4CCCC4)n(Cc4ccccc4)c3C[C@H]2CN1C(=O)c1ccccc1 | 6118
c1ccc(-c2nnc(SCc3ccncc3)o2)cc1 | 2800
Cc1ccc(Cc2c(-c3ccc(C)cc3)nc3c(Cl)cc(C(F)(F)F)cn23)cc1 | 7179
C[C@@H]1CN([C@@H](C)CO)C(=O)CCCn2nncc2CO[C@H]1CN(C)C(=O)Nc1ccc(-c2cccs2)cc1 | 3719
O=C(CSc1nnc(N2CCCC2)n1-c1cccc(Cl)c1)N1CCN(c2ccccn2)CC1 | 3498
COc1ccc([C@H]2C[C@@H](n3cc(C4CC4)nn3)[C@H](O)CN2CC2CCCCC2)cc1 | 3877
CCCCC(=O)Nc1ccc(Cl)cc1F | 3863
C=CCC[C@H](CCCCC)OC(=O)/C=C/[C@@H](O)[C@H](O)C[C@H](O)CC=C | 6261
CCCCN(C)C(=O)c1ccc(Nc2nc(C(N)CCc3ccccc3)cs2)nc1 (stereo unspecified) | 3792
CCC1(CCC(C)C)C(=O)NC(=O)N(c2ccccc2)C1=O (stereo unspecified) | 6050
C#CCNC(=O)c1ccc2sc([C@@H]3O[C@H](CO)[C@H](O)[C@H](O)[C@H]3O)nc2c1 | 3842
CC(=O)c1c(C)[nH]c(C(=O)OCC(=O)NC(C)c2ccccc2)c1C (stereo unspecified) | 3036
CC(C)c1cccc(C(C)C)c1NC(=O)OC1CCCCC1 | 6964

Remaining list, next part.
SMILES | Autofluor counter
CCCCNC(=O)C(NC(=O)c1cccc2ccccc12)C(=O)c1ccccc1 (stereo unspecified) | 4211
CSCCC(NC(=O)COc1ccccc1)C(=O)NCC(C)(C)N1CCOCC1 (stereo unspecified) | 3488
Cc1cn([C@H]2C[C@H](O)[C@@H](CNS(=O)(=O)c3ccc(NS(=O)(=O)N(C)C)cc3)O2)c(=O)[nH]c1=O | 2925
COCCCN1C(=O)C(CC(=O)NC2CCCCC2)CC(C(=O)N2CCOCC2)=C1C (stereo unspecified) | 3577
CCOC(=O)CCCCCC(=O)Nc1ccc2c(c1)C(=O)N([C@@H](C)CO)C[C@H](C)[C@H](CN(C)C(=O)Nc1ccc(F)cc1)OCCCC[C@H](C)O2 | 3536
COc1ccc(Cl)cc1NC(=O)CN1C(=O)C(=O)N(C2CCCC2)C1=O | 2812
CCCC(C(=O)NC(C)(C)C)N(Cc1ccccc1)C(=O)c1snc(C(N)=O)c1N (stereo unspecified) | 4077
CC(C)(C)n1nnnc1C(CCc1ccccc1)N1CCC(n2c(=O)[nH]c3ccccc32)CC1 (stereo unspecified) | 4631
N#Cc1ccc(NC(=S)N2Cc3ccccc3-n3nncc3C2)cc1 | 3669
CCOC(=O)C1(Cc2ccccc2C)CCCN(C(=O)c2ccc(C(C)=O)s2)C1 (stereo unspecified) | 3734
CCOC(=O)C1(C)CCCN(C(=O)c2snnc2C)C1 (stereo unspecified) | 3708
Cc1cccc(NC(=O)CNC(=O)c2cc(S(=O)(=O)N(C)C)ccc2N2CCCC2)c1C | 3201
O=C(N1CCOCC1)N1[C@H](COCc2ccccc2)C=CS1(=O)=O | 4324
CCCNC(=O)C1(C)CCCN(Cc2cccc3ccccc23)C1 (stereo unspecified) | 3952
CCOC(=O)[C@]12CCC=C1N(Cc1cccc3ccccc13)C(=O)[C@H](CC(=O)N1CCCCC1)C2 | 5391
Cc1cccc(C(O)c2ncc(-c3cccc(C(F)(F)F)c3)[nH]2)c1C (stereo unspecified) | 3960
Cc1cc2nc(-c3ccc(C#N)cc3)c(Cc3ccsc3)n2c(C)c1Br | 6149
CC1(C(=O)NS(=O)(=O)Cc2ccccc2)CCN1C(=O)Cc1cc(F)ccc1F (stereo unspecified) | 3675
CN1OC[C@@H]2CN[C@H](c3ccc(Br)cc3)C[C@@H]21 | 3575
CC1(C(=O)O)CCCN1C(=O)c1cccc2ccccc12 (stereo unspecified) | 3808

Reprinted from the part before: 4 compounds, then new ones.
SMILES | Autofluor counter
Cc1cc2nc(-c3ccc(C#N)cc3)c(Cc3ccsc3)n2c(C)c1Br | 6149
CC1(C(=O)NS(=O)(=O)Cc2ccccc2)CCN1C(=O)Cc1cc(F)ccc1F (stereo unspecified) | 3675
CN1OC[C@@H]2CN[C@H](c3ccc(Br)cc3)C[C@@H]21 | 3575
CC1(C(=O)O)CCCN1C(=O)c1cccc2ccccc12 (stereo unspecified) | 3808
CCOC(=O)C1(CCOC)CCCCC1=O (stereo unspecified) | 4101
CC(C)(C)c1ccc(Nc2n[nH]c3ccccc23)cc1 | 4532
Cc1ccc2c(c1)N(Cc1ccccc1)C(=O)C(C)S2 (stereo unspecified) | 2795
COCCN1C[C@@H](CO)O[C@@H](n2cnc3c(NCc4ccncc4)ncnc32)C1 | 3728
COC1OC(c2ccccc2)=C(c2cnc(N)nc2)c2ccc(F)cc21 (stereo unspecified) | 5733
Cc1noc(C)c1S(=O)(=O)Nc1ccc2c(c1)C(=O)N([C@@H](C)CO)C[C@@H](C)[C@@H](CN(C)CC1CCCCC1)OCCCC[C@@H](C)O2 | 3921
CCCCC1CC2=C(C(=O)OC(C)(C)O2)C(c2ccc(F)cc2)O1 (stereo unspecified) | 5791
CCOC(=O)C1=CCN(S(=O)(=O)c2ccccc2Br)C1c1ccc(C)cc1 (stereo unspecified) | 5602
Cc1ccccc1Oc1ccc2c(c1)[C@@H]1C[C@H](N(C)C(=O)c3cccnc3)[C@H]([C@H](C)O)C(=O)N1CC2 | 2854
CC1(C(=O)NS(=O)(=O)c2ccccc2C(F)(F)F)CCN1C(=O)C1CCCCC1 (stereo unspecified) | 2916

5 of these compounds, reformatted.
Structure	Autofluor counter
COCCCN1C(=O)C(CC(=O)NC2CCCCC2)CC(C(=O)N2CCOCC2)=C1C (stereo unspecified)	3577
CCOC(=O)CCCCCC(=O)Nc1ccc2c(c1)C(=O)N([C@@H](C)CO)C[C@H](C)[C@H](CN(C)C(=O)Nc1ccc(F)cc1)OCCCC[C@H](C)O2	3536
COc1ccc(Cl)cc1NC(=O)CN1C(=O)C(=O)N(C2CCCC2)C1=O	2812
CCCC(C(=O)NC(C)(C)C)N(Cc1ccccc1)C(=O)c1snc(C(N)=O)c1N (stereo unspecified)	4077
CC(C)(C)n1nnnc1C(CCc1ccccc1)N1CCC(n2c(=O)[nH]c3ccccc32)CC1 (stereo unspecified)	4631

(continued)
SMILES | Autofluor counter
COc1ccc(CC(=O)Nc2cc(S(=O)(=O)N3CCCCC3)ccc2OC(C)C)cc1OC | 3495
C[C@H](CO)N1C[C@H](C)[C@H](CN(C)Cc2ccncc2)OCc2ccccc2-c2c(n(C)c3ccccc23)C1=O | 3705
Fc1cccc(Cc2c(-c3cccc(Cl)c3)nc3ccc(Br)cn23)c1 | 19716*
CCc1nc2ccc(C(=O)NCc3ccc4c(c3)OCO4)cn2c1N(C)CCC(C)C | 2891
COC(=O)c1ccc2nc(-c3ccc(OC)c(OC)c3)c(Cc3ccsc3)n2c1 | 4261
COCCCNC(=O)C[C@@H]1C[C@@]2(C(=O)OC)CCCCC=C2N(Cc2ccccc2)C1=O | 4551
C[C@@H]1CN([C@@H](C)CO)C(=O)c2cc(Br)cnc2O[C@@H]1CN(C)C(=O)Nc1ccc(F)cc1 | 3828
CC1(C(=O)NS(=O)(=O)c2cccc(Cl)c2)CCN1C(=O)C1(c2ccccc2)CC1 (stereo unspecified) | 3521
COc1ccc(C(=O)C2CCCN(C(=O)c3csc(SC)n3)C2)cc1F (stereo unspecified) | 3489
CC1=C(C(=O)N(C(C)C)C(C)C)CC(CC(=O)NCc2ccco2)C(=O)N1Cc1ccc(F)cc1 (stereo unspecified) | 5957
O=[N+]([O-])C1C(c2ccccc2)C12c1ccccc1-c1ccccc12 (stereo unspecified) | 2740
COc1ccc([C@H]2N[C@]3(CCCN(Cc4ccc(C(F)(F)F)cc4)C3=O)[C@H]3C(=O)N(C)C(=O)[C@@H]23)cc1 | 3720
CC(=O)NCCNc1nc2cc(-c3ccc4c(ccn4C)c3)sc2c(=O)n1C | 4256
Cc1cc2c(cc1C)NC(=O)C(C)CN2 (stereo unspecified) | 3944
Cc1cscc1-c1cc2nc(NCCCN(C)C)n(C)c(=O)c2s1 | 3526
CC(=O)Nc1cc(-c2cccc(C(=O)NCCN(C)C)c2)cn2c(-c3ccccc3)cnc12 | 3795
CCN(CC)C(=O)c1ncn2c1C(=O)N(C)CC2 | 5992
COc1ccc(S(=O)(=O)N2CCC[C@H]2C(=O)N2CCC[C@H]2C(=O)NCc2ccncc2)cc1C | 6163
CN(C)CCOc1ccc2c(c1)C(=O)C(=Cc1ncc([N+](=O)[O-])n1C)C2 | 2909
NC(c1csc(NC(=O)c2cccc(OC(F)(F)F)c2)n1)c1ccccc1Cl (stereo unspecified) | 3817
CCCCCC(=O)N1C[C@H](O)[C@@H](n2cc(-c3ccc(F)cc3)nn2)C[C@@H]1c1ccc(OC)cc1 | 3540
CCNc1nc(NC(C)C)nc(-c2ccncc2)n1 | 7561
CCc1nc2c(OCCn3cccc3)cccn2c1N(C)C(=O)c1ccccc1F | 3012
CCCCn1nnnc1C(c1ccccc1)N1CCN(C/C=C/c2ccccc2)CC1 (stereo unspecified) | 5955
